# High-throughput results: PubChem, ICCB-Longwood Screening Facility, Harvard Medical School
# KSHV LANA nucl: inhibitors of KSHV LANA binding to nucleosomes; FITC-LANA1-23 / chicken nucleosome fluorescence polarization; hits give low values; z-score (no concentration beside the values); actives 0.3% (n = 51,000); AID 720717;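 active means both repeat wells score below -2 in polarization z-score versus plate sample wells, excluding overly bright wells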;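 further: 100 nL library stock added to about 30 µL; numbers are from one replicate; some results filed as inactive read as strong as hits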
#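 Test system: purified chicken nucleosomes with FITC-labelled LANA N-terminal peptide (1-23); Input: 240 nM purified chicken nucleosomes (480 nM peptide binding sites), final; Medium: TEN-BT buffer, pH 7.5; Timing: 10–45 min, room temperature; Technique: fluorescence polarization, 480 nm excitation, 535 nm parallel and perpendicular emission; Replication: duplicates.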
# BasE inh: blocks the Acinetobacter baumannii siderophore enzyme BasE; purified BasE, fluorescence polarization binding displacement; actives 0.1% (n = 84,000); AID 485350; inhibition, % (test concentration not listed);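 active means both replicates above 25% with normal brightness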;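 further: 0% = negative plate control signal and 100% = positive plate control signal; stock transfer was 100 nL into about 30 µL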
# An asterisk follows results filed as active; x = no result given; & = joins results of further samples. These rows are one share of the data; rates above refer to the full screens.
molecule | KSHV LANA nucl | BasE inh
COc1ccc(OC)c(N=c2oc3cc(O)ccc3cc2C(=O)Nc2ccccn2)c1 | 0.23 | 0.2
COC(=O)c1ccc(/C=N/NC(N)=S)n1-c1ccc(F)cc1 | -0.022 | -0.3
Cc1noc(C)c1COc1ccc(/C=N/NC(=S)NC(C)(C)C)cc1 | x | 1.3
Cc1ccc(N2C(=O)CC(N3CCN(c4cccc(C)c4C)CC3)C2=O)cc1Cl (stereo not given) | x | -2.7
O=C1SCCc2c1n(Cc1ccccc1)c1ccccc21 | -0.052 | -0.4
O=C1CC2(CCCC2)C(=O)N1c1ccc(I)cc1 | x | -0.1
CC(C)CC1C2CN(Cc3ccccc3)CC=C2C(C#N)=C(N)C1(C#N)C#N (stereo not given) | -1.5 | 15
CC(Sc1ncnc2sccc12)C(=O)Nc1ccc(S(N)(=O)=O)cc1 (stereo not given) | x | -3.2
CN(C)C(=O)c1cc(Br)ccc1Cl | 0.84 | 1.6
CN(Cc1nccn1C)c1ncnc2sc3c(c12)CCCC3 | x | 0.8

# Looked up above.
# Value of CN(Cc1nccn1C)c1ncnc2sc3c(c12)CCCC3 under BasE inh: 0.8
# Value of CC(Sc1ncnc2sccc12)C(=O)Nc1ccc(S(N)(=O)=O)cc1 (stereo not given) under BasE inh: -3.2
# Value of CC(C)CC1C2CN(Cc3ccccc3)CC=C2C(C#N)=C(N)C1(C#N)C#N (stereo not given) under BasE inh: 15

# Following part:
molecule | KSHV LANA nucl | BasE inh
NC(=O)C1CCN(c2ncc(C(F)(F)F)cc2Cl)CC1 | 0.94 | x
CC1(C)CC2CC(C)(CN2C(=O)CSc2nc3ccccc3o2)C1 (stereo not given) | x | 1.1
COC(=O)c1sc(C(C)(C)C)cc1CS(=O)(=O)c1ccccn1 | x | 1.9
CC1=C(C#N)C(c2ccccc2)C2=C(CC(c3ccccc3)CC2=O)N1 (stereo not given) | x | 2.8
COC(=O)c1ccc(COC(=O)C2=NNC(=O)CC2)cc1 | x | 0.1
CN1C(=O)CC2(CC(=O)N(Cc3ccccc3)C2)C1=O (stereo not given) | -0.48 | 4.0
O=C(Nc1ccccn1)c1cc2c(s1)CCCC2 | -0.65 | 2.6
Cc1cc(=O)n2[nH]c(C(=O)NCc3ccccc3)nc2n1 | 0.47 | 1.1
Cc1ccccc1-c1cc(C(=O)O)c2c(-c3ccccc3)[nH]nc2n1 | -0.12 | 1.4
CC(C)c1nc2ccccn2c1NC1CCCCC1 | -1.2 | -1.8

# Grouped by structure, those above with a tert-butyl group.
molecule | KSHV LANA nucl | BasE inh
Cc1noc(C)c1COc1ccc(/C=N/NC(=S)NC(C)(C)C)cc1 | x | 1.3
COC(=O)c1sc(C(C)(C)C)cc1CS(=O)(=O)c1ccccn1 | x | 1.9

# (more compounds)
molecule | KSHV LANA nucl | BasE inh
N#Cc1nc2c(nc1C#N)-c1ccccc1C2=O | -0.77 | 1.5
CC1CCCCC1NC(=O)COC(=O)c1nc(Cl)ccc1Cl (stereo not given) | x | 2.3
O=C(CSCc1nc2scc(-c3cccs3)c2c(=O)[nH]1)Nc1nnc(C2CC2)s1 | x | -7.4
CC(C)(C)c1ccc(NC(=O)N2CCCN(c3ccc(C(F)(F)F)cn3)CC2)cc1 | -0.34 | x
CCOC(=O)C1CCN(c2nc3c(S(=O)(=O)c4ccc(C)c(C)c4)nnn3c3ccsc23)CC1 | -1.4 | -0.9
CN(c1nc2ccccc2nc1NS(=O)(=O)c1cccs1)C1CCS(=O)(=O)C1 (stereo not given) | x | 4.9
Cc1ccc(C2=NC3(CCN(C(=O)C4CCCC4)CC3)NC2=O)cc1C | -2 | -0.9
Cn1c(SCC(=O)NC2(C#N)CCCCC2)nc2sc3c(c2c1=O)CCCC3 | x | -0.1
Cc1ccccc1S(=O)(=O)Cc1ccc(C(=O)NCCN(C)C)o1 | 0.015 | 1.4
CCOC(=O)C1CCN(C(C(=O)Nc2ccc(F)cc2)c2ccccc2)CC1 (stereo not given) | x | 2.5

# Additional structures:
molecule | KSHV LANA nucl | BasE inh
CS(=O)(=O)N(CCc1ccccc1)CC(=O)NCc1ccccc1 | -0.64 | 0.6
COCCOc1cc(COC)nc(-c2cccc(C)c2)n1 | 0.17 | 1.9
CCCCNC(=O)C1CCN(C(=O)c2cccc(Cl)c2)CC1 | -0.39 | 3.0
CN(CC(=O)NC(=O)Nc1ccc2c(c1)OCCO2)C1CCCCC1 | x | 0.8
O=C(NCc1cccnc1)NC(=O)c1ccccc1 | 0.63 | 0.8
S=C(c1c[nH]c2ccccc12)N1CCCC1 | x | 1.2
COc1ccccc1C(=O)COC(=O)CSc1nnc(-c2ccco2)n1Cc1ccccc1 | x | -1.6
COc1ccc(NC(=S)NCCn2cc(Br)cn2)cc1OC | 0.088 | 3.5
NCC[C@@H](O)C(=O)N[C@@H]1C[C@H](N)[C@@H](O[C@H]2O[C@H](CN)[C@@H](O)[C@H](O)[C@H]2O)[C@H](O)[C@H]1O[C@H]1O[C@H](CO)[C@@H](O)[C@H](N)C1O (stereo not given in full) | 0.28&0.68 | -4.2
COC(=O)c1ccc(CSC2=NCCS2)cc1 | x | -0.3

# More entries.
molecule | KSHV LANA nucl | BasE inh
CS(=O)(=O)c1ccc(C2=C(c3ccccc3)C(=O)OC2)cc1 | -0.55&0.22&-0.2&0.11 | 0.3
Cc1c(NC(=O)CN2C(=O)c3ccccc3C2=O)c(=O)n(-c2ccccc2)n1C | 0.37 | -0.6
COc1cccc(C#N)c1 | x | 1.0
CCN(CC)/C(=N/S(=O)(=O)c1ccc(Cl)cc1)c1ccccc1 | x | 1.1
c1coc(-c2nc3ccccc3s2)c1 | x | 1.9
CCN(CC)CCN=Cc1c(O)[nH]c(=O)[nH]c1=O | 0.43 | 1.1
CC(C)CN(C(=O)c1cccnc1)c1nnc(Cn2nnc3ccccc32)s1 | -0.56 | 2.9
O=c1[nH]c(-c2ccccc2)nc2ccsc12 | 0.14 | x
CCNS(=O)(=O)c1cc(C)ccc1-n1cnnn1 | 0.69 | 2.0
O=C(NCCN1CCN(c2cccc(Cl)c2)CC1)c1nnc(-c2ccc(CN3CCc4ccccc4C3)cc2)o1 | -0.65 | -0.8

# Other results
molecule | KSHV LANA nucl | BasE inh
CC(C)(C)N1COc2ccc3c4c(c(=O)oc3c2C1)CCCC4 | -0.27 | 1.4
CC(=O)Nc1ccc(C(=O)CSc2nc3ccccc3n2CC(=O)N2CCCC2)cc1 | 0.33 | -3.0
CCOC(=O)C1=C(c2cccs2)OC(N)=C(C#N)C1c1cccnc1 (stereo not given) | x | 2.7
CC(=O)Nc1ccc(C(=O)COc2ncnc3sccc23)cc1 | x | 1.9
COc1cc2c(cc1OC)CN(C(=O)C1CCCN1S(=O)(=O)c1ccc(F)cc1)CC2 (stereo not given) | 0.27 | -0.3
CC(C)(C)c1ccc(NC(=O)N2CCN(CCN3CCOCC3)CC2)cc1 | 0.33 | 2.0
CC1CCc2c(sc(NC(=O)C3CC(=O)N(Cc4ccco4)C3)c2C(N)=O)C1 (stereo not given) | x | -1.6
CCOC(=O)c1ccc(NC)c(N)c1 | 0.79 | 1.9
NNC(=O)CCc1nc2ccccc2[nH]1 | 0.042 | 1.3
CCC1(Cc2ccccc2)NC(=O)c2ccccc2O1 (stereo not given) | 3.1 | -2.2

# Further entries follow:
molecule | KSHV LANA nucl | BasE inh
CN1N=C(C(=O)Nc2nc(-c3ccccc3Cl)cs2)CCC1=O | x | 0.1
O=C(NN1C(=O)CCC1=O)C(O)c1ccccc1 (stereo not given) | 0.18 | -1.9
CCOC(=O)Cc1nc(-c2ccc(Cl)cc2)n[nH]1 | -0.45 | x
CN(Cc1ccccc1NCC(=O)Nc1ccc2c(c1)OCCO2)C1CCCCC1 | x | 1.5
C=CCn1c(=N)n(CCO)c2ccccc21 | x | 2.4
CC(C)N1C(=O)/C(=C\c2ccc(C(F)(F)F)cc2)N(C)C1=S | x | -2.3
COC(=O)CNS(=O)(=O)c1ccc(F)cc1 | 0.85 | -1.3
CCN(c1ccccc1)S(=O)(=O)c1c[nH]c(C(=O)OC)c1 | -2 | 0.6
CSc1ncccc1C(=O)OCC(=O)c1ccccc1 | x | 0.8
COc1cccc2sc(=NC(=O)CC34CC5CC(CC(C5)C3)C4)n(C)c12 | x | 1.3

# Further records follow.
molecule | KSHV LANA nucl | BasE inh
CC(C)c1cc(C(=O)O)n(C)n1 | 0.5 | -0.5
C=CCn1c(SCC(=O)/C(C#N)=C2\Sc3ccccc3N2C)nc2ccccc2c1=O | x | -0.2
CC1CCc2c(sc(NC(=S)NC(=O)c3ccn(C)n3)c2C(N)=O)C1 (stereo not given) | -1.6 | -0.1
O=C1CC2(CCCC2)C(=O)N1 | x | -1.0
CC(C)NC(=O)Cn1c(=O)cnc2ccccc21 | x | 3.0
CCOC(=O)C1CCN(C(=O)c2nn(-c3ccccc3)nc2C)CC1 | -0.25 | -0.1
CC1CN(C(=O)c2ccc(Br)o2)CC(C)O1 (stereo not given) | -0.15 | 4.2
C=CCc1c(C)nc(OCC(=O)OCC)c(C#N)c1C | x | -0.2
Cc1cc(=O)oc2cc(OCC(=O)OC(C)C(=O)Nc3ccc(S(N)(=O)=O)cc3)ccc12 (stereo not given) | x | -2.4
CC(c1ccc(S(N)(=O)=O)cc1)N(C)c1ncnc2sccc12 (stereo not given) | x | -3.1

# The list goes on:
molecule | KSHV LANA nucl | BasE inh
CCS(=O)(=O)CCSc1nc(-c2ccccc2)cc(-c2ccccc2)c1C#N | x | 3.3
CN1C(=O)S/C(=C\C(=O)O)C1=O | -0.13 | 2.1
O=C(O)C(C(=O)O)C12OC3C4C5CC(C6C5C3C61)C42 (stereo not given) | x | 1.1
Cc1cccn2c(=O)c3cc(C(=O)N4CCCCC4)sc3nc12 | x | -2.3
CCOC(=O)c1c(-c2ccccc2)oc2cc(Br)c(OCC(N)=O)cc12 | -1.4 | 1.2
Cc1n[nH]c(=O)c2c(NC(=O)COC(=O)C3(c4ccc(Cl)cc4)CCC3)oc(C)c12 | x | -0.2
CCOc1ccc(NC(=O)CN(C)c2nnnn2-c2ccccc2)cc1OCC | x | 1.2
CCc1cc2c(NCCCN3CCOCC3)nc(C)nc2s1 | 0.84 | -0.3
O=Nc1c(O)[nH]c2c(F)cccc12 | -0.069 | 3.5
Brc1ccc(-c2nnc(C34CC5CC(CC(C5)C3)C4)o2)cc1 | 0.24 | -1.3

# (more compounds)
molecule | KSHV LANA nucl | BasE inh
CCOc1ccc(C(=O)NCC2CCN(c3nc(C)cc(C)n3)CC2)cc1 | 0.3 | -0.7
CC/C=C\C/C=C\C/C=C\CCCCCCCC(=O)O | -0.3 | 1.6
O=C(/C=C/c1cccs1)OCc1csc(-c2ccccc2)n1 | x | 1.3
O=C(CSc1ncccc1C(=O)N1CCc2ccccc2C1)Nc1ccc2c(c1)OCO2 | x | 1.6
CN(Cc1ccccc1)C(=O)Cn1cc(S(=O)(=O)N2CCCC2)c(S(=O)(=O)N2CCCC2)c1 | x | 0.6
Cc1nc(N2CCN(CC(=O)NC3CC3)CC2)c2c(-c3ccccc3)csc2n1 | x | 1.1
O=C(O)CCc1nc(-c2ccco2)no1 | -0.42 | 3.3
COc1cccc2c1C(=O)c1c(O)c3c(c(O)c1C2=O)C[C@@](O)(C(=O)CO)C[C@@H]3OC1C[C@H](N)[C@H](O)[C@H](C)O1 (stereo not given in full) | -7.5* | x
O=C(CCc1nc2ccccc2s1)N1CCN(Cc2ccccc2)CC1 | x | 0.3
Cc1nc(N)sc1-c1csc(Nc2ccccc2)n1 | -0.42 | 0.1

# The listing continues:
molecule | KSHV LANA nucl | BasE inh
CC(NC(=O)c1c[nH]c2ccccc12)c1ccccc1 (stereo not given) | -0.08 | x
O=C(CN1C(=O)CSc2ccccc21)OCCCn1c(=O)[nH]c2ccccc21 | x | 0.5
Cc1ccc(C2C3=C(CCCC3=O)N(C)C3=C2C(=O)CCC3)cc1 | 0.18 | 0.3
N#Cc1c(NC(=O)COc2ncnc3ccccc23)sc2c1CCC2 | x | -0.2
CCC(=O)Nc1ccccc1-c1nnn(CC(=O)N2c3ccccc3CC2C)n1 (stereo not given) | -0.13 | 0.2
Cn1c(SC(F)F)nnc1-c1ccc2c(c1)OCO2 | 0.43 | 0.9
NS(=O)(=O)c1ccc(CNC(=O)c2cccc3cccnc23)cc1 | x | 1.1
CC1CCc2c(sc3nc(NN)n(C)c(=O)c23)C1 (stereo not given) | x | 2.8
O=C(NC1CCCCNC1=O)c1ccc2nsnc2c1 (stereo not given) | x | 1.9
NC(=S)N1CCC(c2ccccc2)=N1 | 1.1 | 3.4

# (continued)
molecule | KSHV LANA nucl | BasE inh
Cc1cc(C)n(C(=O)CCCC(=O)O)n1 | -0.49 | 0.9
O=C(CCN1C(=O)c2ccccc2C1=O)N1CCCC1 | 0.13 | 1.6
COC(=O)/C=C1\SC(=Nc2ccc(C)cc2)NC1=O | 1.2 | 1.5
COc1cc(C)cc(CN2CCN(S(=O)(=O)c3ccccc3C#N)CC2)c1O | x | 1.0
O=C(NCc1ccc2c(c1)OCO2)C1CC(c2cccc(Br)c2)=NO1 (stereo not given) | 0.5 | 2.2
CCOC(=O)C1CCN(C(=O)CN2C(=O)c3cccnc3Oc3ccccc32)CC1 | -0.5 | -1.4
c1ccc(C2CCN(c3ncnc4c3nc3n4CCCCC3)C2)cc1 (stereo not given) | -0.14 | -0.3
CC(SCc1nc2sc3c(c2c(=O)[nH]1)CCCC3)C(=O)NCc1ccco1 (stereo not given) | x | -3.3
CC1(C(=O)N2CCCC2)CCC(=O)N1CCc1ccco1 (stereo not given) | 1.2 | -2.5
COC(=O)COc1ccc2c(C)cc(=O)oc2c1 | -0.56 | 0.9
O=C(O)Cc1coc(-c2ccccc2)n1 | x | 1.7
CCCC(=O)Nc1ccc(-c2cn3cccnc3n2)cc1 | 1.1 | 2.5
